NS1 function inh – blocks influenza NS1 protein function | AID 2326 | Potency, µM (doses to about 46.1 µM), for inactives: at the top dose activity, positive = more growth | S. cerevisiae slowed by influenza A NS1, growth recovery by OD600 | actives 0.4% (n = 270,000); also: actives are rising curves; nearly all actives have a fitted effect of over 50% in size
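A cell-based growth assay was used: compounds that relieve NS1-induced slow growth of budding yeast raise OD600. Assay medium was yeast nitrogen base with ammonium sulphate and -URA supplement, pH 6.0, with 2% galactose.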
Cruzain noTriton – cruzain (T. cruzi) inhibition without detergent; purified cruzain, Z-FR-AMC fluorescence, no detergent; Potency, µM, for the others: max response, negative = inhibition, hits mostly inhibitors; actives 2.3% (n = 200,000); active = well fitted curve in the direction sought with a large enough effect; inconclusive = small, poorly fitted or top-dose-only effect, or another doubt; inactive = no such curve, though single readings can be large; an effect the other way counts as inactive or inconclusive;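 also: plate controls were enzyme without inhibitor for no effect and buffer without enzyme for full effect; nearly all actives have a fitted effect of over 40% in size; top concentration of the series not given in the record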
Target sequence (P25779 123-467 limits assumed): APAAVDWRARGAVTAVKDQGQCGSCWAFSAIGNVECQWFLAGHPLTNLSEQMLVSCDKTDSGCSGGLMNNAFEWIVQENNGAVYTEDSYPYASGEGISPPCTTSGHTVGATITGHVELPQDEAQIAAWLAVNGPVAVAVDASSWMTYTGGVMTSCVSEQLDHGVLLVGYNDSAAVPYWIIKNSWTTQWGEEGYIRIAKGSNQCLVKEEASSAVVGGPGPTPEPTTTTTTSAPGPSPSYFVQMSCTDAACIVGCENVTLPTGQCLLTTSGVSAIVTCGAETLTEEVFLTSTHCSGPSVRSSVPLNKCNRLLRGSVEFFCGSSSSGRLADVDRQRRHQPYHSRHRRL
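Detergent-free condition (0.00005% Triton X-100) in acetate buffer pH 5.5 with DTT. 1.5 nM enzyme and compound were pre-mixed 15 min, then 2 uM Z-FR-AMC substrate added; reaction progress from fluorescence change between first and third reads (60 s).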
SARS PLpro yeast – blocks SARS-CoV papain-like protease in a yeast assay; Potency, µM (highest dose often 32.9 µM), inactives show at the top dose activity, positive = growth rescue; S. cerevisiae expressing SARS-CoV PLpro, growth rescue; control for the full effect not named in the record; AID 485353; actives 0.19% (n = 330,000); also: 0% is about no effect; nearly all actives have a fitted effect of over 55% in size; growth read by luminescence after 48 h
Cruzain Triton – blocks cruzain activity in presence of Triton detergent; actives 0.43% (n = 200,000); purified cruzain, Z-FR-AMC fluorescence, 0.01% Triton; P25779; Potency, µM, for the others: max response, negative = inhibition, usual class: inhibitors; active = well fitted curve in the direction sought with a large enough effect; inconclusive = small, poorly fitted or top-dose-only effect, or another doubt; inactive = no such curve, though single readings can be large; an effect the other way counts as inactive or inconclusive;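 also: plate controls were neutral wells for no effect and buffer without enzyme for full effect; nearly all actives have a fitted effect of over 40% in size; top concentration of the series not given in the record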
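Compounds were screened in titration against cruzain (1.5 nM) with 0.01% Triton X-100 to counter colloidal aggregation. Activity was the AMC fluorescence increase over 60 s after adding 2 uM Z-FR-AMC at pH 5.5.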
2A StopGo – FMDV 2A StopGo reporter, luciferase signal | human cells with a luciferase reporter of 2A StopGo recoding; control for the full effect not named in the record | Potency, µM (highest dose often 57.9 µM), for the others: at the highest dose signal change, negative = less light | actives 1.2% (n = 410,000); active = well fitted falling curve with a large enough effect; inconclusive = small, poorly fitted or top-dose-only effect; inactive = no such curve, though single readings can be large or run the other way; tested in HEK293T cells; also: % is scaled to controls: 0 for no effect and ±100 for the full control effect; nearly all actives have a fitted effect of over 45% in size; luciferase light after 4 h
Marburg entry inh – Marburg virus entry inhibition; Potency, µM (highest dose often 37.8 µM), inactives show top-dose activity change, negative = inhibition, actives largely listed as inhibitors; actives 1.8% (n = 300,000); AID 540276; Marburg virus pseudotyped entry inhibition, cell reporter; control for the full effect not named in the record; about a third of the inactives were read at about 46 µM; active = well fitted inhibition curve with a large enough effect; inconclusive = small, poorly fitted or top-dose-only effect, or effect the other way; inactive = flat fitted curve, though single readings scatter; tested in HEK293 cells; about a fifth of its hits are not listed in these tables; also: % is scaled to controls: 0 for no effect and ±100 for the full control effect; luciferase read-out
Lassa entry inh – blocks Lassa virus binding to or entry into cells | actives 1.2% (n = 300,000) | Lassa virus pseudotype entry inhibition, cell reporter; control for the full effect not named in the record | Potency, µM (series often up to 37.9 µM), for inactives: at the top dose activity change, negative = inhibition, actives largely listed as inhibitors; active means well fitted inhibition curve with a large enough effect; inconclusive means small, poorly fitted or top-dose-only effect, or effect the other way; inactive means flat fitted curve, though single readings scatter; tested in HEK293 cells; also: % is scaled to controls: 0 for no effect and ±100 for the full control effect; nearly all actives have a fitted effect of over 50% in size; luciferase read-out
RE007 growth inh – less growth of the S. pombe RE007 Vpr strain; Potency, µM (doses to about 92.2 µM), for inactives: at the highest dose activity change, negative = less growth; actives 0.21% (n = 360,000); S. pombe RE007 Vpr strain, BacTiter-Glo ATP luminescence, 24 h; control for the full effect not named in the record; active = well fitted falling curve with a large enough effect; inconclusive = small, poorly fitted or top-dose-only effect; inactive = no such curve, though single readings can be large or run the other way;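 also: % is scaled to controls: 0 for no effect and ±100 for the full control effect; nearly all actives have a fitted effect of over 50% in size; the assay follows cell death caused by Vpr and the record does not say whether a fall means rescue or toxicity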
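Fission yeast RE007 carrying one integrated HIV-1 vpr copy, seeded at OD 0.01 in PMG+AL medium with 23 nL pinned compound. Grown 24 h at 30 degrees; viability read by BacTiter-Glo luminescence after 5 min.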
Numbers without * were called inactive; & = joins results of further samples; [ ] = another dose, or the depositor's remark. Unless noted, calls follow the shape of the dose curve; as a rule, active means well fitted rising curve with a large enough effect; inconclusive means small, poorly fitted or top-dose-only effect; inactive means no such curve, though single readings can be large or run the other way. Potency is read from the fitted curve at half-maximal effect.

`COC(=O)c1ccccc1NC(=O)CCn1c(=O)oc2ccccc21` gave NS1 function inh -3%, SARS PLpro yeast -2%, 2A StopGo -2%, Marburg entry inh -21%[46.1 µM], Lassa entry inh 5%[46.1 µM] and RE007 growth inh -1%.
COc1ccc(-c2nn(-c3ccccc3)cc2C(=O)NCCCn2ccnc2)cc1 was read as NS1 function inh 0%, Cruzain noTriton 3%, SARS PLpro yeast 1%, Cruzain Triton -0.1%, Marburg entry inh inconclusive, Lassa entry inh -14% and RE007 growth inh 4%.
For Cc1ccc2c(c1)cc(CN(Cc1ccco1)S(=O)(=O)c1ccccc1)c1nnnn12 the results were NS1 function inh 1%, Cruzain noTriton -10%, SARS PLpro yeast -1%, Cruzain Triton 1.6%, 2A StopGo -9%, Marburg entry inh -5%, Lassa entry inh 2% and RE007 growth inh -6%.
Screening Cc1ccc(NC(=O)CCC(=O)N2CCOc3ccccc32)c(Cl)c1 returned NS1 function inh -7%, Cruzain noTriton -9%, SARS PLpro yeast 7%, Cruzain Triton -0.2%, 2A StopGo -22%&36%, Marburg entry inh 6%[46.1 µM], Lassa entry inh 4%[46.1 µM] and RE007 growth inh 5%.
Screening O=C(NCc1ccccc1)C(c1cccs1)N(C(=O)c1csnn1)C1CC1 (configuration not stated) returned NS1 function inh -1%, Cruzain noTriton -7%, SARS PLpro yeast -7%, Cruzain Triton 3.0%, 2A StopGo 12%, Marburg entry inh -26%, Lassa entry inh 1% and RE007 growth inh 12%.
Screening CCCOc1ccc(N2C(=O)CC(N3CCN(c4ccc([N+](=O)[O-])cc4)CC3)C2=O)cc1 (configuration not stated) returned NS1 function inh 8%, SARS PLpro yeast -8%, 2A StopGo 9%, Marburg entry inh 20%[46.1 µM], Lassa entry inh 11%[46.1 µM] and RE007 growth inh 0%.
CCOC(=O)c1c(C)c(C(=O)NC2CCCCCC2)c(C)n1C was read as NS1 function inh -5%, Cruzain noTriton 10%, SARS PLpro yeast 2%, Cruzain Triton 2.5%, 2A StopGo 11%, Marburg entry inh 22%, Lassa entry inh 1% and RE007 growth inh 18%.
Cc1c(NC(=O)CC(C)C)cccc1-c1nc2cccnc2s1 was read as Cruzain noTriton -6%, Cruzain Triton -0.6%, 2A StopGo -16% and Lassa entry inh inconclusive.
COc1cccc(NC(=O)CSC2=Nc3ccccc3C3=NC(CCC(=O)NCc4ccco4)C(=O)N23)c1 (configuration not stated) was read as Cruzain noTriton -3%, Cruzain Triton -0.9%, 2A StopGo inconclusive and Lassa entry inh 4%[46.1 µM].
`CC(C)(NO)/C(=N/O)c1cccs1` gave NS1 function inh -9%, Cruzain noTriton 8%, SARS PLpro yeast -3%, Cruzain Triton 6.6%, 2A StopGo 0%, Marburg entry inh -5%, Lassa entry inh 0% and RE007 growth inh 0%.
For CCC1(c2ccccc2)NC(=O)N(CC(=O)Nc2nnc(C3CC3)s2)C1=O (configuration not stated) the results were NS1 function inh -2%, SARS PLpro yeast 0%, 2A StopGo -10%, Marburg entry inh 4%, Lassa entry inh -1% and RE007 growth inh 10%.
COc1cc(/C=N/NC2=NS(=O)(=O)c3ccccc32)cc(OC)c1OC was read as NS1 function inh 3%, SARS PLpro yeast 2%, 2A StopGo 12%, Marburg entry inh 4%, Lassa entry inh 9% and RE007 growth inh -5%.
For Cn1c(-c2ccc(Cl)nc2)nc2cc(Cl)ccc21 the results were NS1 function inh -1%, SARS PLpro yeast -2%, 2A StopGo 16%, Marburg entry inh 9%, Lassa entry inh inconclusive and RE007 growth inh 17%.
For CC(=C/c1ccccc1)/C=N/NC(=O)c1cc(C)oc1C the results were NS1 function inh 3%, Cruzain noTriton -11%, SARS PLpro yeast -8%, Cruzain Triton -4.2%, 2A StopGo -3%, Marburg entry inh inconclusive, Lassa entry inh inconclusive and RE007 growth inh -5%.
For Cc1cccc(N(CC(=O)NC2CCCC2)C(=O)c2nsc(Cl)c2Cl)c1C the results were NS1 function inh -6%, SARS PLpro yeast -1%, 2A StopGo 16%, Marburg entry inh -13%[46.1 µM], Lassa entry inh -5%[46.1 µM] and RE007 growth inh -11%.
Cc1ccc(C(=O)N/C(=C/c2ccccc2F)C(=O)NCCCn2ccnc2)cc1 was read as NS1 function inh -5%, SARS PLpro yeast -2%, 2A StopGo 27% and RE007 growth inh -2%.
For CCOc1ccc(NC(=O)CC2SC(=O)N(c3ccccc3)C2=O)cc1 (configuration not stated) the results were NS1 function inh 9%, SARS PLpro yeast -1%, 2A StopGo -9%, Marburg entry inh 5%[46.1 µM], Lassa entry inh 15% and RE007 growth inh -10%.
`COC(=O)C1Cc2ccccc2CN1S(=O)(=O)c1ccc(C)cc1` (configuration not stated) gave NS1 function inh -3%, SARS PLpro yeast -1%, 2A StopGo 12%, Marburg entry inh -6%, Lassa entry inh -14% and RE007 growth inh 22%.
`O=C(c1ccc2ccccc2c1)N1CCN(c2ccccn2)CC1` gave NS1 function inh -36%, SARS PLpro yeast 2%, 2A StopGo -10%, Marburg entry inh inconclusive, Lassa entry inh -18% and RE007 growth inh 4%.
`COc1ccc(-n2ccn(CC(=O)NCc3ccc(C)cc3)c(=O)c2=O)cc1OC` gave Cruzain noTriton 3%, Cruzain Triton -1.0%, 2A StopGo -8% and Lassa entry inh 17%[46.1 µM].
For S=c1[nH]c2cc(Cl)ccc2s1 the results were NS1 function inh -125%, Cruzain noTriton -1%, SARS PLpro yeast -29%, Cruzain Triton 0.5%, Marburg entry inh 6%, Lassa entry inh 0% and RE007 growth inh inconclusive.
CCOC(=O)N1CCN(C(=O)c2ccc(OC)c(S(=O)(=O)N3CCOCC3)c2)CC1 was read as NS1 function inh 4%, SARS PLpro yeast -1%, 2A StopGo -7% and RE007 growth inh -4%.
`CCCC(=O)NC(NC(=S)Nc1ccc(S(N)(=O)=O)cc1)C(Cl)(Cl)Cl` (configuration not stated) gave NS1 function inh 0%, Cruzain noTriton 12%, SARS PLpro yeast 25%, Cruzain Triton -0.9%, 2A StopGo -10%, Marburg entry inh 4%, Lassa entry inh 5% and RE007 growth inh -7%.
CCc1nnc(NC(=O)c2cc(S(=O)(=O)N3CCCCC3)ccc2N2CCOCC2)s1 was read as NS1 function inh 2%, SARS PLpro yeast 0%, 2A StopGo -3%, Marburg entry inh inconclusive, Lassa entry inh 27%[46.1 µM] and RE007 growth inh 2%.
Screening CCN(CC)S(=O)(=O)c1cc(NC(=O)Cn2cnc3ccccc3c2=O)ccc1C returned NS1 function inh -2%, Cruzain noTriton 4%, SARS PLpro yeast 3%, Cruzain Triton -2.0%, 2A StopGo -28%, Marburg entry inh -29%, Lassa entry inh 4% and RE007 growth inh 3%.
For Cc1nn(C)cc1/C=N\NC(=O)c1csc2c1CCCC2 the results were NS1 function inh inconclusive, SARS PLpro yeast 4%, 2A StopGo 28%, Marburg entry inh inconclusive, Lassa entry inh -8% and RE007 growth inh 8%.
CCN(CC)CCOC(=O)C1c2ccccc2Oc2ccccc21 was read as NS1 function inh 1%, Cruzain noTriton 2%, SARS PLpro yeast 4%, Cruzain Triton 0.1%, Marburg entry inh -21%, Lassa entry inh -4% and RE007 growth inh -9%.
Cc1ccccc1Nc1c(-c2c[nH]c3ccccc23)nc2ccc(Cl)cn12 was read as Cruzain noTriton -14%, Cruzain Triton -4.4%, 2A StopGo -12%, Marburg entry inh -2%[46.1 µM] and Lassa entry inh 5%[46.1 µM].
Screening COc1ccccc1-n1nnnc1SC(C)C(=O)NC1CCCC1 (configuration not stated) returned SARS PLpro yeast 3%, 2A StopGo -4%, Marburg entry inh 21%, Lassa entry inh -12% and RE007 growth inh -2%.
For Cc1ccc(OCC(=O)NCCS(=O)(=O)N2CCN(c3ccccc3)CC2)cc1 the results were SARS PLpro yeast inconclusive, 2A StopGo 3%, Marburg entry inh inconclusive, Lassa entry inh inconclusive and RE007 growth inh -6%.
CCOC(=O)Cc1ccc(NC(=O)n2ncc3cc(Cl)ccc32)cc1 was read as Cruzain noTriton inconclusive, Cruzain Triton -5.6%, 2A StopGo inconclusive, Marburg entry inh 28%[46.1 µM] and Lassa entry inh -8%[46.1 µM].
`CCn1ccnc1CN1CCCC(C(=O)c2cccc(C(F)(F)F)c2)C1` (configuration not stated) gave NS1 function inh 5%, SARS PLpro yeast 1%, 2A StopGo -26%, Marburg entry inh inconclusive, Lassa entry inh 3%[46.1 µM] and RE007 growth inh -10%.
Screening COCCCNC(=O)c1c(F)c(F)c(F)c(F)c1F returned NS1 function inh -1%, Cruzain noTriton -14%, SARS PLpro yeast 1%, Cruzain Triton -2.8%, 2A StopGo -4%, Marburg entry inh 9%, Lassa entry inh 12% and RE007 growth inh 2%.
`CCOC(=O)c1nn(-c2ccccc2C)c(=O)c2c(N)scc12` gave SARS PLpro yeast 4%, 2A StopGo -17%, Marburg entry inh 0%[46.1 µM], Lassa entry inh -11% and RE007 growth inh -3%.
CCN(CC)C(=O)c1ccc(NS(=O)(=O)c2ccc3[nH]c(=O)[nH]c3c2)cc1 was read as NS1 function inh 2%, SARS PLpro yeast -2%, 2A StopGo -8%, Marburg entry inh 7%, Lassa entry inh 5% and RE007 growth inh 7%.
COc1ccc(CC(=O)Nc2ccc(OC)c(NC(=O)c3ccco3)c2)cc1 was read as NS1 function inh -21%, Cruzain noTriton 2%, SARS PLpro yeast 3%, Cruzain Triton 7.2%, 2A StopGo -25%, Marburg entry inh -29%[46.1 µM], Lassa entry inh -15% and RE007 growth inh 6%.
For CCN(CC)c1ccc(C(=O)OCC(=O)Nc2cccc(S(=O)(=O)NC3=NCCCCC3)c2)cc1 the results were NS1 function inh 29%, Cruzain noTriton 16%, SARS PLpro yeast -3%, Cruzain Triton -14%, 2A StopGo -28%, Marburg entry inh inconclusive and Lassa entry inh -30%.
Screening CC1CC(=Cc2ccc([N+](=O)[O-])cc2)C(=O)O1 (configuration not stated) returned 2A StopGo -5%, Marburg entry inh 14%, Lassa entry inh 18% and RE007 growth inh -26%.
CCOC(=O)CCP(=O)(O)C(O)(c1ccccc1)c1ccccc1 was read as NS1 function inh 3%, Cruzain noTriton 1%, SARS PLpro yeast 18%, Cruzain Triton 0.1%, 2A StopGo -8%, Marburg entry inh 11%, Lassa entry inh inconclusive and RE007 growth inh -4%.

Source: PubChem
